SARS PLpro yeast: qHTS of Yeast-based Assay for SARS-CoV PLP. AID 485353, 2010. S. cerevisiae expressing SARS-CoV PLpro, growth rescue; control for the full effect not named in the record. 330,000 compounds, 0.19% hits. Potency, µM (top dose mostly 32.9 µM), inactives show at the highest dose activity, positive = growth rescue; active means well fitted rising curve with a large enough effect; inconclusive means small, poorly fitted or top-dose-only effect; inactive means no such curve, though single readings can be large or run the other way; also: 0% is about no effect; nearly all actives have a fitted effect of over 55% in size; growth read by luminescence after 48 h
NS1 inh: qHTS Assay for Inhibitors of Influenza NS1 Protein Function | S. cerevisiae slowed by influenza A NS1, growth recovery by OD600 | Potency, µM (series often up to 46.1 µM), without a hit: top-dose activity, positive = more growth | 270,000 compounds, 0.4% hits; active means well fitted rising curve with a large enough effect; inconclusive means small, poorly fitted or top-dose-only effect; inactive means no such curve, though single readings can be large or run the other way; also: nearly all actives have a fitted effect of over 50% in size
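Compounds were scored for reversing the slow growth caused by influenza A NS1 in S. cerevisiae, measured by optical density at 600 nm. Assay medium contained 2% galactose at pH 6.0; NS1-free yeast of the same strain were the positive control.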
MARV entry inh: qHTS for inhibitors of binding or entry into cells for Marburg Virus; Marburg virus pseudotyped entry inhibition, cell reporter; control for the full effect not named in the record; about a third of the inactives were read at about 46 µM; Potency, µM (doses to about 37.8 µM), for the others: at the top dose activity change, negative = inhibition, usual class: inhibitors; 300,000 compounds, 1.8% hits; active = well fitted inhibition curve with a large enough effect; inconclusive = small, poorly fitted or top-dose-only effect, or effect the other way; inactive = flat fitted curve, though single readings scatter; tested in HEK293 cells; about a fifth of its hits are not listed in these tables; also: % is scaled to controls: 0 for no effect and ±100 for the full control effect; luciferase read-out
Lassa entry inh: qHTS for Inhibitors of binding or entry into cells for Lassa Virus | Potency, µM (series often up to 37.9 µM), without a hit: at the highest dose activity change, negative = inhibition, actives largely listed as inhibitors | AID 540256, 2011 | 300,000 compounds, 1.2% hits | Lassa virus pseudotype entry inhibition, cell reporter; control for the full effect not named in the record; active means well fitted inhibition curve with a large enough effect; inconclusive means small, poorly fitted or top-dose-only effect, or effect the other way; inactive means flat fitted curve, though single readings scatter; tested in HEK293 cells; also: % is scaled to controls: 0 for no effect and ±100 for the full control effect; nearly all actives have a fitted effect of over 50% in size; luciferase read-out
Cruzain inh Det: qHTS Assay for Promiscuous and Specific Inhibitors of Cruzain (with detergent) | purified cruzain, Z-FR-AMC fluorescence, 0.01% Triton | Potency, µM, inactives show max response, negative = inhibition, most hits filed as inhibitors | 200,000 compounds, 0.43% hits | AID 1478, 2009;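 also: plate controls were neutral wells for no effect and buffer without enzyme for full effect; nearly all actives have a fitted effect of over 40% in size; top concentration of the series not given in the record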
Target sequence (P25779 123-467 limits assumed): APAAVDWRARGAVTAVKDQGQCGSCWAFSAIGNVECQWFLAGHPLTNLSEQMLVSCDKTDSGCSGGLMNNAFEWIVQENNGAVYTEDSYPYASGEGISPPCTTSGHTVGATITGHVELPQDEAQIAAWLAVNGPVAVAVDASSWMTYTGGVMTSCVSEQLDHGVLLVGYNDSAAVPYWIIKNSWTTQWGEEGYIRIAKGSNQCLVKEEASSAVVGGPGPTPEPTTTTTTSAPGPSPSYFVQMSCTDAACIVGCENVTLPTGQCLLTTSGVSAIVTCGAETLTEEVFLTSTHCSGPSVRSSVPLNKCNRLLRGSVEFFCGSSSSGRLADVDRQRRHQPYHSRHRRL
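Detergent-containing arm of a paired screen for aggregation-based inhibition: 0.01% Triton X-100 present. Cruzain at 1.5 nM cleaved 2 uM Z-FR-AMC at pH 5.5 with 5 mM DTT; AMC fluorescence gain over 60 s measured activity.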
StopGo reporter: High Throughput Screening for Foot and Mouth Disease Virus Antivirals | human cells with a luciferase reporter of 2A StopGo recoding; control for the full effect not named in the record | Potency, µM (highest dose often 57.9 µM), inactives show at the highest dose signal change, negative = less light | 410,000 compounds, 1.2% hits; active = well fitted falling curve with a large enough effect; inconclusive = small, poorly fitted or top-dose-only effect; inactive = no such curve, though single readings can be large or run the other way; tested in HEK293T cells; also: % is scaled to controls: 0 for no effect and ±100 for the full control effect; nearly all actives have a fitted effect of over 45% in size; luciferase light after 4 h
RE007 growth inh: qHTS Assay for Inhibitors of the HIV-1 protein Vpr; 360,000 compounds, 0.21% hits; AID 651644, 2012; S. pombe RE007 Vpr strain, BacTiter-Glo ATP luminescence, 24 h; control for the full effect not named in the record; Potency, µM (doses to about 92.2 µM), for inactives: top-dose activity change, negative = less growth; active = well fitted falling curve with a large enough effect; inconclusive = small, poorly fitted or top-dose-only effect; inactive = no such curve, though single readings can be large or run the other way;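 also: % is scaled to controls: 0 for no effect and ±100 for the full control effect; nearly all actives have a fitted effect of over 50% in size; the assay follows cell death caused by Vpr and the record does not say whether a fall means rescue or toxicity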
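Fission yeast RE007 carrying one integrated HIV-1 vpr copy, seeded at OD 0.01 in PMG+AL medium with 23 nL pinned compound. Grown 24 h at 30 degrees; viability read by BacTiter-Glo luminescence after 5 min.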
Cruzain noTriton: qHTS Assay for Promiscuous and Specific Inhibitors of Cruzain (without detergent); AID 1476, 2009; 200,000 compounds, 2.3% hits; Potency, µM, without a hit: max response, negative = inhibition, hits mostly inhibitors; purified cruzain, Z-FR-AMC fluorescence, no detergent; Cruzipain (Trypanosoma cruzi), P25779;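 also: plate controls were enzyme without inhibitor for no effect and buffer without enzyme for full effect; nearly all actives have a fitted effect of over 40% in size; top concentration of the series not given in the record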
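Detergent-free condition (0.00005% Triton X-100) in acetate buffer pH 5.5 with DTT. 1.5 nM enzyme and compound were pre-mixed 15 min, then 2 uM Z-FR-AMC substrate added; reaction progress from fluorescence change between first and third reads (60 s).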
Numbers without * were called inactive; u = inconclusive; x = no result given; & = joins results of further samples; [ ] = another dose, or the depositor's remark. Unless noted, calls follow the shape of the dose curve; as a rule, active = well fitted curve in the direction sought with a large enough effect; inconclusive = small, poorly fitted or top-dose-only effect, or another doubt; inactive = no such curve, though single readings can be large; an effect the other way counts as inactive or inconclusive. Potency is read from the fitted curve at half-maximal effect.

| mol | NS1 inh | MARV entry inh | Lassa entry inh | StopGo reporter | Cruzain noTriton | Cruzain inh Det | SARS PLpro yeast | RE007 growth inh |
| --- | --- | --- | --- | --- | --- | --- | --- | --- |
| COc1ccc(-n2cccc2/C=C2/NC(=O)N(c3cccc(Cl)c3)C2=O)cc1 | 15% | 10% | 6% | 5% | 10µM* | -4.4% | -14% | 8% |
| Cc1cc(C=C2C(=O)NC(=O)NC2=O)c(C)n1-c1cccnc1 | u | 3%[46.1 µM] | -2% | -1% | x | x | 0% | -19% |
| CSCCC(NS(=O)(=O)c1ccc(C)cc1)C(=O)NCCc1c[nH]c2ccccc12 (centres undefined) | -2% | -16%[46.1 µM] | u | 25% | x | x | u | 13% |
| Oc1c(C(c2ccccc2)N2CCN(c3cccc(Cl)c3)CC2)sc2nc(-c3ccco3)nn12 (centres undefined) | x | x | 2%[46.1 µM] | -3% | 6% | -0.9% | x | x |
| Cc1ccc(N2C(=O)C(Cl)=C(NCc3ccccc3)C2=O)c(C)c1 | -78% | 14% | u | u | -3% | -2.8% | -27% | -26% |
| O=C(CSc1nnc(COc2ccc(Cl)cc2)o1)Nc1ccccc1 | x | u | -28%[46.1 µM] | 21% | u | -6.0% | x | x |
| Cc1ccc(C23CC4CC(CC(C(=O)OCC(=O)N(C)C)(C4)C2)C3)cc1 | -4% | x | x | -29% | x | x | -1% | -13% |
| CCN(CC(=O)NCc1ccc(Cl)cc1)C(=O)/C=C/c1ccco1 | x | -18%[46.1 µM] | -5% | -9% | x | x | -2% | 4% |
| CCc1nnc(NS(=O)(=O)c2ccc(NC(=O)c3ccccc3O)cc2)s1 | 8% | 0%[46.1 µM] | -6%[46.1 µM] | 3% | x | x | 0% | -20% |
| Cc1oc(-c2ccccc2F)nc1CS(=O)CC(=O)NCc1ccccc1 (centres undefined) | 15% | 26%[46.1 µM] | -20%[46.1 µM] | 33%[activator] | x | x | u | -7% |
| Cc1ccccc1-c1nc(CS(=O)(=O)CC(=O)NCc2ccco2)c(C)o1 | 0% | 9%[46.1 µM] | -21%[46.1 µM] | 1% | x | x | 7% | 6% |
| Cc1ccc(NC(=O)CCn2cccc2)cc1Cl | -9% | 25% | 13% | -9% | 2% | 1.4% | -10% | -9% |
| ON1C2CCCCC2N(O)C1c1c(F)c(F)c(F)c(F)c1F (centres undefined) | -15% | u | u | -18% | -1% | 2.0% | 1% | -2% |
| c1ccc(CSc2ncnc3c2cnn3Cc2ccccc2)cc1 | 0% | 8% | 19% | -27% | 2% | 3.8% | 3% | -1% |
| Cc1ccccc1NC(=O)C1C2CCCC1C2c1ccccc1 (centres undefined) | 12% | -3% | -7% | 0% | 5% | 0.3% | 3% | 0% |
| CC(C)c1ccc(S(=O)(=O)N2CCN(C(=O)c3cccc(F)c3)CC2)cc1 | -15% | 8%[46.1 µM] | -14% | -20% | -4% | -4.1% | -5% | 17% |
| Cc1ccc2c(c1)c1c3n2CCN(C(=O)Cn2c(-c4ccccc4)noc2=O)C3CCC1 (centres undefined) | u | u | -24% | -15% | u | 1.5% | 0% | -11% |
| CCC(c1nnnn1CCOC)N1CCN(c2nc3ccccc3s2)CC1 (centres undefined) | -9% | u | -18% | -27% | x | x | 0% | -17% |
| CN1CCN(C(=S)SCC(=O)Nc2ccc(Cl)cc2C(=O)c2ccccc2)CC1 | 13% | u | u | u | 14% | -5.1% | 1% | -1% |
| Cc1csc(NC(=O)CSc2nnc(-c3ccccn3)n2-c2ccc(C)c(C)c2)n1 | -4% | u | 0% | 1% | u | -0.1% | -27% | 1% |
| CC(=O)NC1CCC(OC(=O)Nc2ccccc2)CC1 (centres undefined) | x | -1% | 0% | 67%[activator] | x | x | x | 5% |
| Cc1ccc2nc(-c3cccc(Cl)c3)c(Nc3ccc4c(c3)OCO4)n2c1 | x | 2%[46.1 µM] | 16%[46.1 µM] | 31%[activator] | 0% | -2.7% | x | x |
| Cc1ccc(NCC(=O)N/N=C\c2cccc(O)c2)cc1 | 2% | x | x | 19% | x | x | -1% | -2% |
| CCc1ccccc1NS(=O)(=O)c1cc2c(cc1C)n(C)c(=O)c(=O)n2C | 13% | x | x | -4% | x | x | 0% | -13% |
| COC(=O)/C=C\C(C#N)(C#N)N=Cc1ccc(OC)cc1 | x | -27% | u | u | x | x | x | -19% |
| C/C(CC(=O)Nc1ccc(Cl)cc1Cl)=N\NC(=O)c1ccco1 | 4% | u | -4% | 15% | -8% | -0.7% | -11% | -16% |
| CCOC(=O)c1ccccc1NC(=O)c1cccs1 | -17% | -21% | -21% | -15% | -5% | -5.3% | 3% | -9% |
| Cc1ccc(NC(=O)CN2C(=O)NC(C)(C3CC3)C2=O)cc1S(=O)(=O)N1CCCCC1 (centres undefined) | x | u | 10% | -24% | x | x | 0% | -2% |
| COc1ccc(CN2CCNC(=O)C2CC(=O)NC2CCOCC2)cc1C (centres undefined) | 10% | 2%[46.1 µM] | u | 6% | x | x | u | 13% |
| CCN1c2ccccc2-n2cccc2C12CCN(C(=O)Nc1ccccc1Br)CC2 | x | x | u | -21% | u | -0.8% | x | x |
| CCCN(CCC)C(=O)Cn1c(=O)n(-c2ccc(OC)cc2)c(=O)c2ccc(C(=O)NCc3ccc(C)cc3)cc21 | x | u | 3%[46.1 µM] | 80%[activator] | u | -1.0% | x | x |
| COc1ccccc1NC(=O)CCCCC(=O)Nc1ccccc1OC | -3% | 21% | 10% | -16% | x | x | -1% | 34% |
| NC(=O)c1ccccc1N/C=C/C(=O)c1ccccc1 | -32% | 11% | -2% | 8% | -1% | -2.3% | -25% | -4%[3.69 µM] |
| CCN(CCCNC(=O)CNC(=O)c1nn(-c2ccc(OC)c(OC)c2)c(=O)c2ccccc12)c1ccccc1 | 5% | u | -14%[46.1 µM] | -22% | x | x | -2% | -7% |
| COc1ccc(CNC(=S)N/N=C/c2ccc(O)c(OC)c2)cc1 | 14% | u | u | 8% | -9% | -13% | 23% | 12% |
| Cc1cccc(NS(=O)(=O)c2cn(C)c(=O)n(C)c2=O)c1C | -14% | x | x | 0% | x | x | u | -2% |
| O=C(Cc1cccs1)Nc1nnc(COc2ccccc2)s1 | x | u | -22% | 11% | x | x | x | 20% |
| COc1cc(/C=N/NC(=O)/C(=C\c2ccc([N+](=O)[O-])cc2)NC(=O)c2ccccc2)cc(OC)c1O | 26% | 3% | -15% | 20% | u | -15% | 6% | -8% |
| CCCc1ccc(C(=O)NNC(=O)c2ccc(Cl)cc2)cc1 | 4% | 13% | 15% | 11% | u | -3.1% | 2% | -9% |
| Brc1c(-c2ccccc2)nc2n1Cc1ccccc1-2 | -54% | u | u | -13% | x | x | 0% | -21% |
| O=C(NCc1ccccc1)C1CCN(C(=O)c2cnn(-c3ccccc3)c2-n2cccc2)CC1 | x | 27%[46.1 µM] | x | 8% | 16% | 1.6% | x | x |
| COc1ccc(-c2noc(-c3ccco3)n2)cc1OC | -54% | -20% | u | 29% | 2% | -3.5% | x | -18% |
| CCCCC(O)(CCCC)C(=O)NN(C(=O)CCl)c1ccccc1 | 3% | u | u | 32µM* | 0% | -2.3% | 2% | 8% |
| CC1CC(C)CN(CC(=O)NCCc2ccc(S(N)(=O)=O)cc2)C1 (centres undefined) | 1% | -5%[46.1 µM] | 0%[46.1 µM] | -9% | x | x | 3% | 0% |
| Cc1ccc(C(=O)COC(=O)c2ccc(Br)o2)cc1C | -10% | 0% | u | 39%[activator] | -6% | -4.7% | -11% | u |
| COCc1cc(CN(C)C(=O)c2oc3c(F)cccc3c2C)[nH]n1 | -12% | 1%[46.1 µM] | 10%[46.1 µM] | 6% | x | x | -9% | 1% |
| CC(=O)Nc1ccc(NC(=O)c2ccc(Cn3cc(Cl)cn3)cc2)cc1 | 2% | x | x | -8% | u | -2.5% | -3% | -7% |
| Cc1ccc(C2=NN(C(=O)CCC(=O)O)C(c3cccs3)C2)cc1 (centres undefined) | 1% | x | x | -11% | x | x | 0% | 1% |
| COc1ccc(-n2ncc3c(NCCN4CCOCC4)ncnc32)cc1 | -1% | 26% | u | 32%[activator] | -5% | 1.8% | -8% | -6% |
| Cc1ccccc1NC(=O)COc1ccc(Br)cc1C | -13% | 8% | 8% | 25% | -2% | -1.2% | 15% | -7% |

Additional compounds follow:
| mol | NS1 inh | MARV entry inh | Lassa entry inh | StopGo reporter | Cruzain noTriton | Cruzain inh Det | SARS PLpro yeast | RE007 growth inh |
| --- | --- | --- | --- | --- | --- | --- | --- | --- |
| CCC(C)NC(=O)CNC(=O)c1nn(-c2ccc(OC)cc2)c(=O)c2ccccc12 (centres undefined) | 1% | u | 20%[46.1 µM] | -8% | x | x | 0% | 6% |
| CC(C)c1ccc(NC2CCCN(C(=O)C3=NN(C)C(=O)CC3)C2)cc1 (centres undefined) | 1% | x | x | -20% | x | x | u | 0% |
| CC(C)(C)N1C(=O)c2ccccc2NC(=O)N1Cc1ccc(Br)cc1 | -8% | u | -8% | -6% | 14% | -7.1% | -5% | -1% |
| Cc1cccc(-n2ncc(Cl)c(Cl)c2=O)c1 | -6% | x | x | u | x | x | -11% | -7% |
| COc1ccc(-c2[nH]c(-c3ccc(Cl)cc3)nc2SCC(=O)Nc2nccs2)cc1 | 13% | 13% | 5% | -29% | u | -6.2% | 0% | -1% |
| CC(=O)N(c1cccc(Br)c1)C1C=CS(=O)(=O)C1 (centres undefined) | 1% | 1% | -4% | x | 0% | -1.1% | 2% | -14% |
| CSc1nncc(=O)[nH]1 | 7% | -2%&-2% | 0% | -18% | -9% | 3.7% | -2% | 5% |
| COc1ccccc1NC(=O)Cn1nnc(C(=O)NCCc2ccccc2)c1N | 7% | -27%[46.1 µM] | u | -24% | x | x | -1% | -9% |

Bioassay records (PubChem BioAssay)

Rows were taken by chance (roughly 4.5% active in at least one column).
